Anthrax LT inh: blocks cellular internalization of anthrax lethal toxin; Cells, anthrax lethal toxin internalization, FRET ratio (460/530); Potency, µM (titrated, usually from 40 µM), for inactives: at the highest dose activity change, negative = inhibition, hits mostly inhibitors; hit rate 0.67% among 70,000; active = well fitted falling ratio curve with the 530 nm signal flat; inconclusive = other ratio curves, or a change in one channel alone; inactive = flat curves in the ratio and both channels; the % refers to the ratio; note: % is set by controls: 0 for no effect and ±100 for the full control effect; nearly all actives have a fitted effect of over 50% in size; tested in ME-180 cells; beta-lactamase reporter
Prx2 Sm inh: Schistosoma mansoni Prx2 inhibition; S. mansoni Prx2 activity coupled to TGR/GSH (TGR is thioredoxin glutathione reductase), NADPH fluorescence loss, qHTS; some inactives read as strong as hits; Potency, µM; hit rate 0.07% among 65,000; AID 448; active means full or partial inhibition curve with a strong effect at the top dose; inconclusive means weaker partial or single-point curve; inactive means no accepted curve; note: series up to 57 µM; many of its hits are not listed in these tables
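Prx2 activity was followed as the loss of NADPH fluorescence (ex 365/em 450 nm), read every 30 sec for 8 min after H2O2 start. The enzyme mix (50 nM Prx2, 25 nM TGR, GSH, NADPH; pH 7.4 phosphate buffer) was incubated with compound for 15 min at room temperature first.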
Numbers without * were called inactive; ? = inconclusive; · = no result given; [ ] = remark or other dose. Potency is the fitted concentration of half-maximal effect. Only part of the results is shown (hit frequency here may not be typical).

molecule	Anthrax LT inh	Prx2 Sm inh
CN=C(NC#N)NCCSCc1csc(N=C(N)N)n1	?	>57
Cc1ccc(C(=O)Nc2ccccc2C(=O)NC(CC(=O)O)C(=O)O)cc1 (stereo not given)	10%	>57
COc1ccc(S(=O)(=O)N2CCOCC2)cc1C(=O)Nc1nc2ccccc2s1	6%	>57
Cc1n[nH]c(C)c1S(=O)(=O)N(CC(=O)Nc1ccc2c(c1)OCCO2)c1ccc(C(C)C)cc1	16µM*	>57
COc1ccc(NC(=O)N2CC3(CCNCC3)C2)cc1	-22%	>57
Cn1c(Oc2ccccc2NCc2cc(Br)ccc2O)cc(=O)n(C)c1=O	0%	>57
O=C(Nc1cccc2c1CCCC2)c1ccco1	-9%	·
O=C(CN(c1ccccc1)S(=O)(=O)c1ccc(F)cc1)N1CCCCCC1	-20%	>57
C=CCSc1nc(N)c(C#N)c(-c2ccc(C)cc2)c1C#N	?	>57
C=CCNc1nc(-c2ccc(OC)cc2OC)cs1	2%	>57

The results go on.
molecule	Anthrax LT inh	Prx2 Sm inh
COc1cc(COc2cc(N)c(Cl)cc2C(=O)CCC2CCN(CCNS(C)(=O)=O)CC2)cc(OC)c1	?	>57
CCc1nc2sc(C)c(C)c2c(=O)n1CCO	?	·
COc1ccc(CC(C(=O)Nc2cc(C)ccc2C)/C(N)=N/O)cc1 (stereo not given)	-3%	>57
CCCN1CCN(CCCNC(=O)C2CCN(c3nnc(-n4cccc4)s3)CC2)CC1	2%	>57
Cc1cccc(NC(=O)c2ccccn2)c1C	-5%	>57
Cc1ccc(S(=O)(=O)Nc2ccc3nc(-c4cccn4C)[nH]c3c2)cc1	10%	?
COc1ccc(O[C@H]2C=C[C@@H](c3ccccc3)O[C@H]2COC(=O)CC/C(C)=N\OC[C@@H](O)COCc2ccco2)cc1	-3%[8 µM]	·
C=CCN1C(=O)N(/C=C/C)c2cccc3cccc1c23	-19%	>57
COc1ccc(CNS(=O)(=O)c2ccc(S(=O)(=O)N3CCCCC3)cc2)cc1	-11%	>57
Cc1cc2ccccn2c1C(=O)c1ccncc1	5%	>57

Five compounds picked at random from the list so far:
molecule	Anthrax LT inh	Prx2 Sm inh
COc1ccc(CC(C(=O)Nc2cc(C)ccc2C)/C(N)=N/O)cc1 (stereo not given)	-3%	>57
COc1cc(COc2cc(N)c(Cl)cc2C(=O)CCC2CCN(CCNS(C)(=O)=O)CC2)cc(OC)c1	?	>57
COc1ccc(O[C@H]2C=C[C@@H](c3ccccc3)O[C@H]2COC(=O)CC/C(C)=N\OC[C@@H](O)COCc2ccco2)cc1	-3%[8 µM]	·
Cc1ccc(S(=O)(=O)Nc2ccc3nc(-c4cccn4C)[nH]c3c2)cc1	10%	?
Cc1cccc(NC(=O)c2ccccn2)c1C	-5%	>57

(cont.)
molecule	Anthrax LT inh	Prx2 Sm inh
COc1ccc(O[C@H]2C=C[C@@H](c3ccccc3)O[C@H]2COC(=O)CC/C(C)=N\O[C@@H](C)c2cn([C@H]3COC[C@H]3O)nn2)cc1	-13%[8 µM]	·
O=C(NCc1ccccn1)Nc1ccc2c(c1)OCO2	0%	>57
Cn1c(=O)c2c(nc(CN3CCN(C(=O)c4ccco4)CC3)n2CCc2ccccc2)n(C)c1=O	·	>57
COC(=O)c1ccccc1NC(=O)c1sc(=S)n(C)c1N	-14%	>57
CCc1nnc(SCC(=O)NC2CCCCC2)nc1CC	6%	>57
Cc1ccccc1N1OC2C(=O)N(c3ccc(F)cc3)C(=O)C2C1c1ccccn1 (stereo not given)	-19%	>57
Cc1cc(C)c(C(N)=O)c(NCCc2ccccc2)n1	?	>57
CCCCCCn1c(N2CCC(C(N)=O)CC2)nc2c1c(=O)n(C)c(=O)n2C	8%	>57
Cc1ccc(C)c(N2CCN(C(=O)CN(C)S(=O)(=O)c3cnc[nH]3)CC2)c1	6%	>57
COC(=O)Nc1nnc(CCc2ccccc2)s1	-3%	>57

Next part.
molecule	Anthrax LT inh	Prx2 Sm inh
CCOc1cc(C2C(C(=O)OCC(C)C)=C(C)N=C3SCCC(=O)N32)ccc1OC(C)=O (stereo not given)	13%	>57
Cc1ccc(N(CC(=O)NC2CCCC2)C(=O)CCCC(=O)Nc2ccccn2)cc1C	?	>57
CCOc1ccc(CCNC(=O)c2nnc(Cc3ccc(F)cc3)o2)cc1OCC	3%	>57
COc1ccc(C2CC(c3cccc(Cl)c3)n3nc(N)nc3N2)cc1 (stereo not given)	-13%	>57
COc1ccc(-c2oc3cc(OC)c(OC(C)=O)c(OC)c3c(=O)c2OC)cc1OC(C)=O	?	37*
COc1cc(S(=O)(=O)N2CCOCC2)ccc1F	2%	>57
COC(=O)c1ccc(-n2c(C)cc(/C=N/n3cnnc3)c2C)cc1	-18%	·
O=C1CSC2=NCN(c3ccc4c(c3)OCO4)CN12	-14%	·
CCN(CCO)Cc1cc(=O)oc2c(C)c(C)ccc12	0%	>57
O=C1OC(C2=CCCCC2)=NC12CC2	?	·

Reprinted from the part before: 3 entries; new compounds follow.
molecule	Anthrax LT inh	Prx2 Sm inh
O=C1CSC2=NCN(c3ccc4c(c3)OCO4)CN12	-14%	·
CCN(CCO)Cc1cc(=O)oc2c(C)c(C)ccc12	0%	>57
O=C1OC(C2=CCCCC2)=NC12CC2	?	·
COc1cc(CN2CCN(CCOCCO)CC2)cc(OC)c1OC	-4%	·
COc1ccc(OCc2nn3c(-c4cccc(OC)c4)nnc3s2)cc1	-13%	>57
Cc1cc(=O)[nH]c2c(C)c(Cl)ccc12	-9%	>57
CCCN(CCC)C(=O)CSc1nc2ccccc2c(=O)n1C1CCCC1	?	>57
O=C(CCN1C(=O)c2ccccc2C1=O)N1CCCCCC1	2%	·
CCn1nnnc1-c1ccc(OC)c(S(=O)(=O)Nc2ccc(OC)cc2)c1	4%	>57
Cc1c(C(=O)NC(C)c2ccncc2)oc2ccccc12 (stereo not given)	5%	>57
Nc1c(C(=O)Nc2ccc3c(c2)OCCO3)nnn1CCc1ccccc1	?	>57
CCn1c(C)c(C(C)=O)c(N2CCCC2)nc1=S	-16%	>57
O=c1[nH]c(NCc2ccco2)nnc1Cc1ccccc1Cl	-4%	>57

Continued:
molecule	Anthrax LT inh	Prx2 Sm inh
O=C(CSc1nnc(Cn2c(=O)sc3ccccc32)n1-c1ccccc1)N1CCCC1	23%	>57
COc1ccc(-n2c(SCC(=O)N3CCCC(C)C3)nnc2-c2cccnc2)cc1 (stereo not given)	-4%	>57
Cc1c(NC(=O)c2ccc(N3C(=O)C4C5C=CC(C5)C4C3=O)cc2)c(=O)n(-c2ccccc2)n1C (stereo not given)	?	>57
CNc1sc(C(=O)c2cccs2)c(N)c1-c1nc2ccccc2s1	?	>57
Cc1ccc(S(=O)(=O)Cc2ccc(C(=O)NCCCN3CCCC3=O)o2)cc1	13%	>57
CN(C(=O)NC(=O)C1=C(N2CCOCC2)/C(=C/c2ccccc2)CC1)S(C)(=O)=O	4%	>57
CCOC(=O)CSC1=C(C#N)C(c2ccc(Cl)cc2)C(C(=O)OC)C(=O)N1 (stereo not given)	-4%	>57
COc1ccccc1NC(=O)COc1ccc(CO)cc1Cl	?	>57
COC(=O)c1cc2nc(-c3ccc(OC)cc3)cc(C(F)(F)F)n2n1	-3%	·
O=C(NCc1ccccc1)N1CCn2c(nc3ccccc32)C1	7%	>57

Further entries follow:
molecule	Anthrax LT inh	Prx2 Sm inh
Cc1nn(C)cc1CNC(=O)C1C2CCC(O2)C1C(=O)O (stereo not given)	-5%	>57
NCCC[C@@H](CC(=O)N[C@@H]1CCNC[C@H]1C(=O)N[C@H](CC(=O)N[C@@H](CCC(=O)O)CC(=O)O)Cc1ccccc1)NC(=O)C[C@H](Cc1ccccc1)NC(=O)[C@@H]1CCCC[C@H]1N	-5%	>57
O=C(C1CCCCC1)N1CCC(c2nc3ccccc3[nH]2)CC1	-7%	>57
CSc1nnnc2ccccc12	?	>57
Cc1cnc(CNc2ccnc(-c3ccoc3)n2)cn1	12%	>57
CC(C)c1ccc(NS(=O)(=O)c2cn(C)c(=O)n(C)c2=O)cc1	8%	>57
COc1ccc(CN2C(=O)[C@@H]3C(c4ccc(F)cc4)=NO[C@@H]3C2=O)cc1	-1%	>57
COc1cc(OC)c(-c2nc3cnccc3n2C)cc1OC	-1%	>57
Cc1cc(-c2nn3c(-c4ccccc4)nnc3s2)c2ccccc2n1	-24%	>57
NC(N)=NC(=O)c1nc(Cl)c(N2CCCCCC2)nc1N	?	>57

(more compounds)
molecule	Anthrax LT inh	Prx2 Sm inh
COc1ccc(C2C(C(=O)N3CCOCC3)CCC(=O)N2c2ccc(OC)cc2)cc1 (stereo not given)	6%	>57
CCOC(=O)N1CCN(C(=O)c2ccc3nc(C)sc3c2)CC1	24%	>57
O=C(CN1c2cccc3cccc(c23)S1(=O)=O)N1CCOCC1	?	>57
CCSc1nc2c([nH]c3ccccc32)c(=O)n1C	8%	>57
O=C(c1cccs1)N1CCn2c1nc1ccccc12	0%	>57
CO[C@@H]1COC(=O)C/C=C\[C@H](C)COC(=O)[C@H](Cc2ccccc2)NC(=O)C/C=C\[C@H]1C	-6%[1.6 µM]	·
Cc1ccc(-n2c(C)nc3oc4ccccc4c(=O)c3c2=O)cc1	1%	>57
CCN(CC)C(=O)C(C)OC(=O)COc1ccc(Cl)cc1C (stereo not given)	-13%	>57
CCOC(=O)c1ccc(N2C(=O)C3C(C2=O)C(C(=O)c2ccc(Cl)cc2)N2CCCC32)cc1 (stereo not given)	?	>57
Cc1[nH]c(=O)[nH]c(=O)c1S(=O)(=O)N1CCN(c2cccc(Cl)c2)CC1	4%	>57

(further entries)
molecule	Anthrax LT inh	Prx2 Sm inh
CC(=O)c1ccccc1OCCCN1CCCCC1	-21%	>57
O=c1c2c(n3nnnc3n1Cc1ccccc1)-c1ccccc1CC21CCCC1	?	>57
CCN1c2nc3ccccn3c(=O)c2CC2(C(=O)N(C)C(=O)N(C)C2=O)C1C (stereo not given)	-7%	>57
COC(=O)N1CCC2(CC1)CN(c1ccccc1)C2	-11%	>57
COC(=O)C(C)Sc1nnc(Cc2cc(=O)[nH]c(=O)[nH]2)n1-c1cccc(OC)c1 (stereo not given)	0%	>57
COc1cc([C@H]2[C@@H]3CCCC[C@]3(O)CCN2Cc2ccccc2F)ccc1O	-6%	>57
CN(C)Cc1c(O)ccc2occ(C(=O)c3ccccc3)c12	-10%	>57
CCOc1ccc(C(=O)Nc2ccc(S(=O)(=O)N3CCOCC3)cc2)cc1OCC	-12%	>57
CN(C)/C=N/c1sc2c(c1C#N)CCC2	1%	>57
CCC(=O)N[C@@H]1Cc2ccccc2[C@@H](c2ccccc2)C1	-8%	>57

Later entries
molecule	Anthrax LT inh	Prx2 Sm inh
CCOC(=O)[C@]1(C(NC(=O)OC)c2ccccc2)CCCC1=O (stereo not given in full)	-22%[8 µM]	·
CS(=O)(=O)N1Cc2ccccc2CC1C(=O)Nc1ccccc1C(N)=O (stereo not given)	15%	>57
COc1cc(NS(=O)(=O)c2ccc(N)cc2)nc(OC)n1	?	>57
Cc1nc2sc3c(c2c(=O)o1)CCCC3	-16%	>57
NS(=O)(=O)c1cc(C(=O)O)cc(N2CCCC2)c1Oc1ccccc1	-5%[3.58 µM]	>57
Cc1ccc(SCCNS(C)(=O)=O)cc1	7%	>57
O=C1C2CCCN2C(c2cccc(F)c2)N1c1cccc(Cl)c1 (stereo not given)	-2%	>57
CC(C)C[C@@H](CC(=O)N[C@@H](CCC(=O)O)CC(=O)O)NC(=O)[C@@H]1CCCC[C@H]1NC(=O)C[C@H](CCCN)NC(=O)C[C@H](Cc1ccccc1)NC(=O)[C@@H]1CNCC[C@H]1N	-14%	>57
O=C(c1ccco1)N(CC1CCCO1)c1nc(-c2ccccc2)cs1 (stereo not given)	?	>57
COc1ccc(C(=O)NC2=C(C#N)CCC2)cc1OC	6%	·

Next section.
molecule	Anthrax LT inh	Prx2 Sm inh
Cn1cnc(S(=O)(=O)N2CCc3ccccc32)c1	-8%	>57
Cc1cc(C)cc(Nc2ncc3c(n2)CCCC3=O)c1	18%	>57
COC(=O)NCC(c1cccnc1)N1CCN(c2ccccc2)CC1 (stereo not given)	9%	>57
Cc1ccc(NS(=O)(=O)c2cc(C(=O)N3CCOCC3)ccc2C)cc1	-2%	>57
CC1CCCN(S(=O)(=O)c2ccc3c(c2)CCN3C(=O)C2CCC2)C1 (stereo not given)	12%	>57
COc1cccc2sc(Nc3nc(C)c(C(C)=O)s3)nc12	?	>57
C[C@H]1COC(=O)[C@H]2CCCN2C(=O)[C@@H](C)COC(=O)[C@H]2CCCN2C1=O	-14%[8 µM]	·
Cc1nc2ccccc2c2oc(C(=O)Nc3ccc4c(c3)OCCO4)cc12	0.79µM*	>57
CC(=O)C1=C(O)C(=O)N(CCN(C)C)C1c1ccc(Cl)cc1 (stereo not given)	9%	>57
Cc1cc(C)n(S(=O)(=O)c2ccc(C)c(C)c2C)n1	?	>57
CCOc1ccccc1NC(=O)N1CCCC1C(=O)Nc1ccc(-n2cnnn2)c(C)c1 (stereo not given)	-9%	>57
